From PubChem BioAssay
CSC inhib: cancer stem cell viability inhibitors, primary screen, luminescence; cancer stem cell-like cells viability; inhibition, % at 7.5 µM; hit rate 1.1% among 300,000;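 active = mean at 75% or more and at least half the replicates too; inconclusive = mean and replicates disagree; tested in HMLE shEcad cells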;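 also: 0% = median of negative and 100% = median of positive control wells; the first replicate is given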
Rce1 inh: yeast Rce1p protease inhibitors, primary screen, biochemical, fluorescence, cell-free homogeneous; CAAX prenyl protease 2 (Saccharomyces cerevisiae (strain ATCC 204508 / S288c)), Q03530; yeast membranes, quenched prenylated peptide cleavage fluorescence; calls only; hit rate 0.27% among 290,000; AID 2563, 2010;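 active = fall in fluorescence gain of 50% or more versus controls, with final raw signal at or below 3038400; inconclusive = same 50% fall but final raw signal above 3038400; inactive = fall in fluorescence gain under 50%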;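 also: plate controls were neutral control wells for no effect and wells lacking membranes for full effect; tested at 10 µM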
Target sequence (Q03530 whole entry, looked up): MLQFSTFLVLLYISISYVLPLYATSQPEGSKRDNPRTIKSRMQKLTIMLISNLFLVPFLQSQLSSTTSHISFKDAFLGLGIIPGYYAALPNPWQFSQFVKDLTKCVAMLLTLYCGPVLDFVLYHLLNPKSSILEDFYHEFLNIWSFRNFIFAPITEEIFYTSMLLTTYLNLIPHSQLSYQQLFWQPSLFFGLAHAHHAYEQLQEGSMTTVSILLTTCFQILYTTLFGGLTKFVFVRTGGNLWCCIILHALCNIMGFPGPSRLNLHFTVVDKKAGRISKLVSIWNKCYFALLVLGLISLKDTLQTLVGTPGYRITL
MT1-MMP act inh: blockers of MT1-MMP proenzyme processing, primary screen, HT1080 RFP-PRO-GFP cells, GFP/RFP fluorescence | Matrix metalloproteinase-14 (Homo sapiens), P50281 | GFP/RFP ratio fluorescence, overnight; percent of plate control window, DMSO zero | GFP/RFP ratio change, % at 20 µM | hit rate 0.061% among 360,000 | AID 651647, 2012;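 active = GFP/RFP ratio change of at least 30% with cell ATP level not reduced by more than half and red fluorescence within 50% of control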; also: strong numbers were not always called active
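Assay system – RFP-PRO-GFP reporter HT1080 cells · Compound dosing – single dose of 20 µM compound, 1% DMSO final · Incubation – overnight compound exposure at 37 °C · Measure – GFP/RFP fluorescence ratio · Benchmarks – DMSO wells and RFP-L50D-GFP cells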
PABP FP inh: PABP poly(A) RNA binding inhibitors, primary screen, biochemical, fluorescence polarization, uHTS | hit rate 1% among 290,000 | inhibition, % at 35 µM | Polyadenylate-binding protein 1 (Homo sapiens), P11940;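 active = 50% or more with normal probe brightness, or confirmed in later tests; inconclusive = above 50% with abnormal brightness, or retests that disagree; inactive = below 50% or failed in later tests; about a fifth of its hits are not listed in these tables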;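 also: calls also rest on retests at 20 µM and on dose response follow-up; controls were probe without protein and protein plus probe with vehicle; some compounds called inactive have numbers as strong as hits; many hits fall short of the cut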
eIF4H FP inh: human eIF4H binding inhibitors, primary screen, translation initiation inhibitor project, biochemical, uHTS, fluorescence polarization; Eukaryotic translation initiation factor 4H (Homo sapiens), Q15056; eIF4H fluorescence polarization binding assay; inhibition, % at 35 µM; hit rate 0.94% among 290,000;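 active = 50% or more with normal probe brightness, or confirmed in later tests; inconclusive = above 50% with abnormal brightness, or retests that disagree; inactive = below 50% or failed in later tests; about a fifth of its hits are not listed in these tables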;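 also: calls also rest on retests at 20 µM and on dose response follow-up; 0% = protein and probe with vehicle and 100% = probe without protein; strong numbers were not always called active; many hits fall short of the cut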
HIV Env fusion: inhibitors of HIV-1 Env-driven cell-cell fusion, primary screen, HeLa-JRFL effector, CEM21 target cells, luciferase. inhibition, % at 12.3 µM. hit rate 1.1% among 360,000. AID 651610, 2012;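 active = mean replicate inhibition score of at least 50 and every replicate individually at or above 50; inconclusive = only one of the two criteria met; inactive = mean below 50 and not all replicates reaching 50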;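 also: 0% = plate neutral controls and 100% = maraviroc near 300 nM; one replicate is shown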
Yeast UUG start: modulators of yeast start codon fidelity, primary screen, whole organism, S. cerevisiae, single point, plate reader | S. cerevisiae UUG-firefly luciferase reporter, luminescence/redox ratio | AID 602363, 2012 | hit rate 0.13% among 350,000 | activity score, % at 18.7 µM;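 active = replicate mean at a twofold rise or more, about +100% in these data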;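 also: firefly luciferase made from a UUG start codon reports start codon fidelity; reporter light over untreated wells divided by growth signal over untreated wells; some hits fall short of that in this replicate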
MT1-MMP act inh RFP: further read-out of MT1-MMP act inh, marked with its call; RFP signal change, %; measured here: RFP expression control read;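 0 = vehicle wells; hits needed this value within 50% of zero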
An asterisk follows results filed as active; i = inactive; ? = inconclusive; nt = no result given. Compounds as they come. About 3% of those tested had a hit in this group.

SMILES	CSC inhib	Rce1 inh	MT1-MMP act inh	MT1-MMP act inh RFP	PABP FP inh	eIF4H FP inh	HIV Env fusion	Yeast UUG start
C#CCOCCOCCOCCNc1nc(N2CCN(C(=O)[C@H]([C@@H](C)CC)n3cc([C@@H](N)CO)nn3)CC2)nc(N2CCN(C(=O)[C@H](Cc3ccc(O)cc3)n3cc([C@@H](N)C(C)CC)nn3)CC2)n1 (stereo partly specified)	-6	i	4	5	8	2	nt	43
O=[N+]([O-])c1ccc(C(=Nc2cccc3ccccc23)N2CCOCC2)cc1	1	i	-4	-3	-3	-11	47	-12
COc1cccc(-c2sc3ccccc3c2-c2ccc(OCCN3CCCCC3)cc2)c1	104*	nt	-5	-4	nt	nt	nt	-34
COc1cc(C2c3sc(=O)[nH]c3SC3C4CCC(C4)C23)ccc1O (stereo unspecified)	0	i	-7	-5	14	0	nt	8
O=C(Nc1ccccc1N1CCN(c2ccccc2)CC1)c1ccccc1F	49	i	-7	-2	-9	2	16	nt
CCN(CC)c1ccc2c(C)cc(=O)oc2c1	-14	nt	1	7	nt	nt	nt	-2
O=C(NCC(=O)N(Cc1ccco1)C(C(=O)NC1CCCCC1)c1cccnc1)c1ccco1 (stereo unspecified)	-9	i	-3	0	1	2	-4	-18
CCOCCOC(=O)c1[nH]c2c(c1C)C(=O)CC(c1ccc(N(C)C)cc1)C2 (stereo unspecified)	nt	i	-1	-15	2	-8	30	-21
COc1ccc(OCC(O)CN2CCCCC2)cc1 (stereo unspecified)	nt	i	4	8	-11	7	-2	1
CCOC(=O)C1(C)CCCN(C(=O)c2cccc3ccccc23)C1 (stereo unspecified)	nt	nt	2	-1	nt	nt	-7	15
Cc1ccc(-c2nnc(SCC(=O)N/N=C/c3ccccc3C(=O)O)n2-c2ccc(Cl)cc2)cc1	-22	i	-2	-1	1	-4	12	-8
CCn1c(=O)c(C(=O)CN2c3ccccc3CC2C)c(N)n(Cc2ccccc2)c1=O (stereo unspecified)	3	i	11	14	-2	24	-5	-5
COc1ccc(N2CCN(C(=O)c3ccc(CNS(=O)(=O)c4cccc(OC)c4)cc3)CC2)cc1	-2	nt	4	-18	-1	-9	-7	-14
CCCCCCC(=O)N/N=C/c1ccc(Br)cc1	2	i	-2	-1	-6	-11	nt	nt
Cc1ccc(NC(=O)CCSCCc2ccccn2)cc1	-10	i	6	5	-8	13	1	-12
CN(C)Cc1nnnn1-c1cccc(-n2nnnc2CN(C)C)c1	-5	i	3	9	2	-8	-5	nt
CCN1CCN(C(=O)C2CCCN(S(=O)(=O)c3cc(Cl)ccc3Cl)C2)CC1 (stereo unspecified)	28	i	2	-3	6	-11	13	-16
Nc1ccc(S(=O)(=O)Nc2ccc(C(=O)c3ccccc3)cc2)cc1	4	i	2	-5	7	2	-20	8
Cn1cnc2cc(NC(=O)c3cccs3)ccc21	-1	i	0	2	-1	6	-30	nt
Cc1ccc(N2CC(NC(=O)C3CC3)CC2=O)cc1 (stereo unspecified)	-3	i	-2	6	nt	nt	4	nt

Compound profiles, as listed above. Order of screens: CSC inhib	Rce1 inh	MT1-MMP act inh	MT1-MMP act inh RFP	PABP FP inh	eIF4H FP inh	HIV Env fusion	Yeast UUG start
Listed for `Cc1ccc(-c2nnc(SCC(=O)N/N=C/c3ccccc3C(=O)O)n2-c2ccc(Cl)cc2)cc1` → -22	i	-2	-1	1	-4	12	-8
Listed for `CN(C)Cc1nnnn1-c1cccc(-n2nnnc2CN(C)C)c1` → -5	i	3	9	2	-8	-5	nt
Listed for `COc1cccc(-c2sc3ccccc3c2-c2ccc(OCCN3CCCCC3)cc2)c1` → 104*	nt	-5	-4	nt	nt	nt	-34

The listing picks up; the 3 compounds before the break are reprinted first.
SMILES	CSC inhib	Rce1 inh	MT1-MMP act inh	MT1-MMP act inh RFP	PABP FP inh	eIF4H FP inh	HIV Env fusion	Yeast UUG start
Nc1ccc(S(=O)(=O)Nc2ccc(C(=O)c3ccccc3)cc2)cc1	4	i	2	-5	7	2	-20	8
Cn1cnc2cc(NC(=O)c3cccs3)ccc21	-1	i	0	2	-1	6	-30	nt
Cc1ccc(N2CC(NC(=O)C3CC3)CC2=O)cc1 (stereo unspecified)	-3	i	-2	6	nt	nt	4	nt
O=C(Nc1cccc(NC(=O)c2ccccc2Cl)c1)c1cccs1	4	i	-3	-8	0	-4	14	-23
CC1=NN(C(C#N)c2ccc([N+](=O)[O-])cc2)C(C)(C)C1 (stereo unspecified)	-1	i	nt	nt	2	-2	9	nt
Cc1n[nH]c(=S)n1-c1ccccc1	-5	i	2	5	-13	-4	0	nt
Cc1nc2ccc([N+](=O)[O-])cc2c(=O)n1Cc1cccc(Br)c1	19	i	4	-2	11	-5	-3	-2
O=C(Nc1cccc(F)c1)c1ccccc1	-12	i	4	3	11	6	10	-12
Cc1nc2ccccc2c(=O)n1-c1ccc(NS(=O)(=O)c2ccccc2)cc1	-8	i	1	-4	nt	nt	-2	-12
Cc1sc2ncnc(NCc3cccnc3)c2c1C	0	i	3	-4	2	-1	7	nt
CCOC(=O)N1CCN(C(=O)COc2ccc(Cl)c(C)c2)CC1	-8	i	0	2	-6	1	-7	2
Cc1ccccc1Cn1nc(C)c(NC(=O)C(F)(F)F)c1C	23	i	1	6	6	0	4	-21
CC(OC(=O)c1ccc(NS(=O)(=O)c2ccc3[nH]c(=O)[nH]c3c2)cc1)C(=O)Nc1cccc(Cl)c1Cl (stereo unspecified)	6	i	0	-1	4	6	12	nt
Cc1nn(CC(=O)N2CCCc3ccccc32)c(C)c1[N+](=O)[O-]	nt	i	-2	0	-11	-3	4	nt
COC(=O)[C@@H]1CC[C@H](C)[C@@H](c2ccc(C)cc2)N1C(=O)c1ccc(/C=N/OCC[C@@H]2C=C[C@H](OC(C)=O)[C@@H](COC(C)=O)O2)cc1	-19	i	nt	nt	13	-1	nt	nt
Cc1ccc(S(=O)(=O)N(CCCc2c(C)nc[nH]c2=O)c2ccccc2)cc1	nt	nt	0	-2	nt	nt	-10	-8
CCOC(=O)c1ccc(/C=C2/C=C(c3ccccc3)N(c3ccc(Cl)c(C(=O)O)c3)C2=O)cc1	45	i	-9	5	3	7	0	-3
O=S(=O)(c1ccccc1)N(Cc1ccccc1)c1ccccn1	-2	i	-1	0	-5	-18	0	-11
Cn1c(=O)c2c(SCc3ccccn3)nc(CC(C)(C)C)nc2n(C)c1=O	-2	i	-2	-1	-10	-15	-6	-5
CCS(=O)(=O)C(=C1Nc2ccccc2N1)S(=O)(=O)CC	-16	i	-2	0	6	-9	nt	-8
CCOC(=O)c1sc2ncn(/N=C/c3ccc(O)cc3)c(=O)c2c1C	-3	i	-1	-8	-1	-3	11	nt
COC(=O)c1ccc(/C=N/NC(=O)c2ccccc2Cl)cc1	-8	i	5	9	-5	15	-19	nt
Cn1cnnc1Sc1ccc(C(F)(F)F)cc1[N+](=O)[O-]	-10	i	4	7	-1	10	4	nt
COc1ccc(/C=C2\SC(=N)N(c3nccs3)C2=O)cc1OC	77*	i	6	-5	-18	21	6	nt
COc1ccc(N=Nc2nc3ccc(Br)cc3n2C)cc1	6	i	-205	8	?	?	-287	-16
Cc1onc(-c2ccccc2)c1C(=O)OCC(=O)N(CC(C)C)c1c(N)n(Cc2ccccc2)c(=O)[nH]c1=O	-12	i	-12	-11	nt	nt	-7	nt
CC(C)OC(=O)c1cccc(C(=O)OCc2ccco2)n1	-8	i	-6	-1	5	7	-53	-8
Cc1cc(NN)nc(NS(=O)(=O)c2ccccc2Cl)n1	nt	i	1	3	4	0	-15	nt
O=C(COc1cccnc1[N+](=O)[O-])Nc1ccccc1Sc1ccccc1	-7	i	-1	-7	50	-4	nt	-9
COCCN(CC(=O)Nc1ccc(F)cc1)S(=O)(=O)c1ccc(S(=O)(=O)N2CCCC2)cc1	-1	i	9	1	-4	5	-109	-6
N#Cc1ccc(C(=O)OCCCc2cc3ccccc3c(=O)o2)cc1	-7	nt	2	3	nt	nt	-56	-13
C/C(CC(=O)Nc1ccc2c(c1)OCCO2)=N\NC(=O)C(=O)Nc1ccccc1C	-1	i	-2	-1	-10	-5	-10	nt
Cc1cc(C)c2c(N)c(C(=O)Nc3ncc(C)s3)sc2n1	nt	nt	9	3	1	-3	21	-91
Cc1ccc(C(=O)OCC(=O)N2C(C)CCCC2C)cc1S(=O)(=O)N1CCOCC1 (stereo unspecified)	-4	i	nt	nt	nt	nt	nt	0
CCc1ccc(Cc2cnc(NC(=O)C3=NCCN3)s2)cc1	37	i	8	3	-14	9	-14	nt
Cc1ccccc1CSCC(=O)c1c(N)n(CC(C)C)c(=O)n(C)c1=O	-8	i	-4	-21	9	-7	nt	10
COc1cccc2c(=O)n(CC(=O)N3CCCCC3)ccc12	-6	i	4	3	-8	3	4	4
COc1ccccc1NS(=O)(=O)c1cc(NC(=O)c2ccc(Cl)nc2)ccc1N1CCCC1	1	nt	5	-9	nt	nt	nt	1
O=C(Nc1cccc(-n2cccn2)c1)C1CCCN(Cc2cc3ccccc3[nH]2)C1 (stereo unspecified)	nt	i	-2	3	12	6	3	-2
Cn1cnnc1SCC(=O)N1N=C2/C(=C/c3ccco3)CCCC2C1c1ccco1 (stereo unspecified)	0	i	-2	2	1	7	nt	nt
CCCS(=O)(=O)NC(=O)C1(C)CCCN(C(=O)c2cc(C)n(C(C)(C)C)n2)C1 (stereo unspecified)	nt	nt	-2	6	nt	nt	-6	-3
CC(=O)Oc1ccccc1N(C(C)=O)S(=O)(=O)c1ccc(C)cc1	-14	i	-4	9	3	4	-14	-8
CCC(=O)c1ccc(OC(=O)Cc2ccc(OC)cc2)cc1	2	i	-1	2	3	-4	4	-11
Fc1ccccc1-c1nc(-c2ccc(Br)o2)no1	3	i	-2	3	-4	0	3	nt
CSc1ncc(Cl)c(C(=O)Nc2ccc(S(=O)(=O)N3CCOCC3)cc2)n1	6	nt	-4	-6	-15	-6	nt	-12
O=C(CCn1cnnn1)N1CCCC(Nc2ccc(F)c(F)c2)C1 (stereo unspecified)	0	i	-4	1	-8	-2	3	0
O=C(N/N=C/c1ccc2c(c1)OCO2)c1sc2cccc(Cl)c2c1Cl	33	i	2	3	3	-9	nt	-6
CCC(=O)N1CCc2cc(OC)c(OC)cc2C1COc1ccc(F)cc1 (stereo unspecified)	nt	i	4	1	0	2	6	-2
Cc1ccc(S(=O)(=O)N2CCN(C(=O)CCC(=O)NCCc3ccc(F)cc3)CC2)cc1	-9	i	6	3	1	-1	-11	nt
CN(Cc1ccc(Cl)cc1Cl)C(=O)c1cccc(S(=O)(=O)N2CCN(c3ccccc3)CC2)c1	5	i	8	-20	nt	nt	90*	-11
O=C(CCc1nc2ccccc2s1)Nc1ccccc1	-4	i	-1	-9	2	-7	15	nt
